Screens as filed in PubChem.
Beta2AR agonist: beta2AR agonists driving receptor internalization, primary screen, cell-based, FAP fluorogen, flow cytometry; Beta-2 adrenergic receptor (Homo sapiens), P07550; Am2.2-beta2AR cells; reference of the scale not given here; response, % (test concentration not listed); 0.43% of 340,000 active; AID 504454, 2011;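 active = response above a set limit, near 3 SD of response in nonfluorescent compounds, cut at about 42% in these data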;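 note: stock transfer was 100 nL into about 11 µL; a reference agonist was the positive control; negative values mostly stem from fluorescent compounds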
HNF4A DNA FP: change in binding of human HNF4A to DNA, primary screen, biochemical, fluorescence polarization, FITC-DNA; Hepatocyte nuclear factor 4-alpha (Homo sapiens), P41235; 1 h; activity change, % at 10 µM; 0.3% of 360,000 active; in the data active = activity change above about 30%, passing the limit was not always enough;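 note: controls were the assay level and a saturating level of protein; the project sought stronger binding though the title names inhibitors; some compounds called inactive have numbers as strong as hits; positive values seem to mean higher polarization but the record does not say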
Target sequence (P41235 whole entry, looked up): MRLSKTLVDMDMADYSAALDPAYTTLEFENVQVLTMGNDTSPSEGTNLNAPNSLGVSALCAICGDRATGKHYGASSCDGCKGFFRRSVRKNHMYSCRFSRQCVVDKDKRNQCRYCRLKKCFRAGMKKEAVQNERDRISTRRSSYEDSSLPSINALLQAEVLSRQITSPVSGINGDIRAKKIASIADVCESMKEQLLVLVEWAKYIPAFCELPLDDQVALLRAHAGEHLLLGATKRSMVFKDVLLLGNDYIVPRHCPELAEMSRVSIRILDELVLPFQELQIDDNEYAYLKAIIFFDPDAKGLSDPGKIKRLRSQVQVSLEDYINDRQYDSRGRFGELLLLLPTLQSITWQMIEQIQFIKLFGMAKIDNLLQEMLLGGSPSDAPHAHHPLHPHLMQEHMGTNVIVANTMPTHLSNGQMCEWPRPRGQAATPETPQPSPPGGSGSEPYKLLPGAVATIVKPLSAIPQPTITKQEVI
RanGTP-Impb inh: inhibitors of RanGTP-importin-beta interaction, primary screen, biochemical, FRET, CFP-Ran, YFP-importin-beta, homogeneous; AID 2216, 2009; inhibition, % (no concentration beside the values); Ran GTPase (GTP-bound) - importin-beta complex; cell-free CFP-Ran/YFP-importin-beta FRET ratio; 1.1% of 300,000 active;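 active = most replicates above 15%; inconclusive = exactly half above 15%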;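 note: 0% = DMSO wells and 100% = Ran loaded with GDP instead of GTP; wells of about 40 µL received 100 nL stock; the first replicate is given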
Vif A3G: inhibitors of Vif binding to APOBEC3G peptide, primary screen, biochemical, TR-FRET, GST-Vif 1-94, biotin-A3G peptide, dose response retest (AID 1117319); Virion infectivity factor (Human immunodeficiency virus type 1 group M subtype B (isolate …; TR-FRET GST-Vif / biotin-A3G peptide binding; higher % means a stronger effect; test concentration not given here; strong numbers were not always called active; inhibition, %; hits with a dose series show IC50 in µM; 0.57% of 260,000 active;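 active = above the screen mean plus three standard deviations and confirmed in dose response; inconclusive = results disagree or hit not tested in dose response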;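 note: Vif residues 1-94 fused to GST binding biotinylated APOBEC3G peptide 110-148; 0% = full assay without inhibitor and 100% = GST in place of GST-Vif; retest series ran down from 100 µM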
ALR H2O2 inh: inhibitors of human ALR sulfhydryl oxidase, primary screen, biochemical, H2O2 detection, HRP-luminol luminescence, single point; 3.8% of 290,000 active; purified ALR, DTT oxidation; FAD-linked sulfhydryl oxidase ALR (Homo sapiens), P55789; inhibition, % (concentration not given with the values);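 active = mean and each replicate at 75% or more; inconclusive = only one of the two met; inactive = neither met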;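 note: stock transfer was 7.5 nL into about 7.5 µL; 0% = neutral wells and 100% = wells with inactivated enzyme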
Target sequence (P55789 whole entry, looked up): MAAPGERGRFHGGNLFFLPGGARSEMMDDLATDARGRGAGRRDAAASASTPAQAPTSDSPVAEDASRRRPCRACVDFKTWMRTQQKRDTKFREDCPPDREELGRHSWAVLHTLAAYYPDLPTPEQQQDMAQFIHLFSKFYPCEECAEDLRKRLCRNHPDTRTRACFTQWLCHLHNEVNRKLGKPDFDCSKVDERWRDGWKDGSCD
LANA-H2B inh: blockers of LANA interaction with H2A/H2B – biochemical, FP readout, HTS, primary screen; cell-free LANA-H2A/H2B peptide, fluorescence polarization; inhibition, % (no concentration beside the values); 0.6% of 320,000 active; Protein LANA1 (Human herpesvirus 8 type P (isolate GK18)), Q9QR71; in the data active = inhibition mostly above about 10%, no sharp cut-off; inactive = mostly below about 6.7%;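 note: stock transfer was 7.5 nL into about 10 µL; 0% = median of vehicle wells and 100% = median of positive control wells; one replicate is shown; the record names a cut of 25% in any replicate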
Calb FLC: C. albicans growth inhibition with fluconazole, primary screen, CaCi-2 strain, Alamar Blue fluorescence; growth inhibition, % (no concentration beside the values); 0.57% of 300,000 active; AID 1979, 2009; C. albicans CaCi-2 (fluconazole-resistant clinical isolate) + fluconazole, 48 h;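 active = most replicates above 75%; inconclusive = exactly half above 75%; inactive = most below 75%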;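 note: all wells also contain fluconazole at 8 µg/ml as a sub-toxic cotreatment; 0% = median of DMSO wells and 100% = median of geldanamycin control wells; wells of about 8 µL received 7.5 nL stock; the first replicate is given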
* = called active by the depositor; ? = inconclusive; . = no result given; & = joins results of further samples.

SMILES	Calb FLC	Beta2AR agonist	HNF4A DNA FP	ALR H2O2 inh	RanGTP-Impb inh	Vif A3G	LANA-H2B inh
Cc1ccc(C(=O)N2CCC(C(=O)NCc3ccco3)CC2)cc1	18	-4	0.5	-4	-3.0	.	-1.3
C=CCSc1nnc(NC(=O)c2cn(CC)c3nc(C)ccc3c2=O)s1	-1	4	17	6	-1.6	-8%	-0.3
CCOC(=O)C1(Cc2cccc(F)c2)CCN(C(=O)c2cnccn2)CC1	-1	5	2.7	-6	-2.4	0%	-5.8
Cc1ccc(N2C(=O)CS/C2=N\C(=S)Nc2ccccc2)cc1	1	7	5.4	90*	3.8	-2%	-5.0
CC12CCC(C(=O)N3CCN(c4ncccn4)CC3)(c3nc4ccccc4nc31)C2(C)C (stereo not given)	2	-3	0.8	-30	3.0	11%&2%	-2.0
Cc1ccc(NC(=O)CN(C)C(=O)c2ccc(OCc3c(C)noc3C)cc2)cc1	.	1	1.9	.	.	4%	.
Cc1ccc(C(=O)Oc2ccc(C(=S)N3CCOCC3)cc2)cc1	9	0	1.3	-1	2.6	-10%	-1.7
COc1ccc(CSc2nnc(SCc3ccc([N+](=O)[O-])cc3)s2)cc1	2	13	0.6	5	0.9	5%	-2.3
O=C(Cc1c[nH]c2ccccc12)N/N=C/c1ccc(F)cc1	?	5	4.4	-3	6.0	.	-1.0
CC(=O)c1ccc(NC(=O)c2cc(CC(C)C)on2)cc1	1	14	-0.9	-1	4.0	-11%	0.2
Cc1cccc(-n2c(CCN3C(=O)c4ccccc4C3=O)nc3ccccc3c2=O)n1	-4	-7	3.5	.	0.4	4%	.
CN(C)c1ccc(-c2nnn(Cc3ccccc3Br)n2)cc1	42	3	1.4	-2	?	3%	1.0
COc1cc(C(=O)Nc2cccc(NC(=O)c3cccs3)c2)cc(OC)c1OC	-6	5	0.5	2	-7.7	.	-1.4
O=C(COc1ccc(Cl)cc1)NCCCNC(=O)c1ccccn1	14	-3	2.0	-1	4.2	.	1.7
COc1cccc(N=C2C(=O)N3CCCc4cccc2c43)c1	-4	0	-1.2	-6	?	11%	-11
Cn1c(=NC(=O)c2ccc3c(c2)OCCO3)sc2cc(S(C)(=O)=O)ccc21	2	3	-1.1	.	2.9	.	-0.8
Cn1c(SCC(=O)N2CCCc3ccccc32)nnc1-c1ccco1	-12	-16	-0.5	-21	1.1	20%	2.5
O=C(c1ccccc1)N(c1ccccc1)C1C=CS(=O)(=O)C1 (stereo not given)	55	5	0.2	-9	-3.7	3%	-1.4
CC(C)(C)Nc1nc(NN)nc(NC(C)(C)C)n1	26	-6	-2.0	1	2.5	-4%	-3.6
O=C(NCCc1ccc(F)cc1)c1cc2ccccc2oc1=O	-8	-8	0.5	-4	2.5	-11%	4.7

The listing continues.
SMILES	Calb FLC	Beta2AR agonist	HNF4A DNA FP	ALR H2O2 inh	RanGTP-Impb inh	Vif A3G	LANA-H2B inh
COc1ccc(-c2c[n+](CC(=O)OC3CC(C)CCC3C(C)C)c3n2CCC3)cc1 (stereo not given)	88*	-9	-1.3	-6	11	-7%	4.1
CN(CCn1ccnc1)Cc1cn(-c2ccccc2)nc1-c1ccc2c(c1)OCO2	24	-14	2.3	.	-2.6	2%	1.2
O=C(CN1CCN(Cc2ccccc2)CC1)NC(c1ccccc1)c1ccccc1	0	2	-2.2	-5	8.1	15%	5.4
COc1ccc(CN2CCNC(=O)C2CC(=O)NCCc2nc(C)c(C)s2)cc1C (stereo not given)	-10	1	-0.5	-2	4.0	-1%	4.4
O=C(CSc1nnc(NC(=O)c2cc(Br)ccc2Cl)s1)NCC1CCCO1 (stereo not given)	-5	-1	4.8	4	-1.2	0%	6.3
CCSc1nnc(NC(=O)COc2ccc3ccccc3c2)s1	12	3	0.8	-8	0.6	-13%	3.4
O=C1NC(=Nc2ccccc2)SC1Cc1ccccc1 (stereo not given)	3	-11	-1.0	-1	3.5	0%	-4.1
Cc1ccc(S(=O)(=O)N2CCC(N3CCN(C)CC3)CC2)cc1Cl	13	-3	-0.8	-2	2.3	.	0.1
COc1ccccc1NC(=O)CN1C(=O)COc2ccc(S(=O)(=O)N3CCCCCC3)cc21	2	13	-1.2	-5	0.0	-2%	3.8
O=C(N/N=C/c1ccoc1)c1cccc(OC(F)(F)C(F)F)c1	-1	-2	1.9	-12	2.0	.	-0.1
COc1ccc(/C(C)=N/Nc2ccc(C(=O)O)cc2)c(OC)c1	-13	-3	-2.1	45	0.5	7%	-1.2
O=C(N/N=C/c1cccc(OC(=O)c2ccc3c(c2)OCO3)c1)c1cncc(Br)c1	8	0	1.1	-1	0.3	.	4.7
COc1cc(NC(=O)C2CCCN2S(=O)(=O)c2ccc3c(c2)CC(C)N3C(C)=O)cc(OC)c1 (stereo not given)	-9	-12	0.1	-9	-0.3	-5%	-2.0
CC1CC(NC(=O)c2c(O)nc3sccn3c2=O)CC(C)(C)C1 (stereo not given)	-3	4	0.1	.	0.6	10%	.
Cc1cc(O)cc(O)c1C=NCc1ccco1	-5	1	1.8	-14	3.7	.	-1.2
Cc1ccn2c(=O)nc(SCC(=O)NC3CCCC3)nc2c1	-4	7	-0.5	-8	18*	7%	5.0
Cn1c(=O)[nH]c(=O)c2c1nc(CN1CCN(c3ccc(F)cc3)CC1)n2CCN1CCOCC1	-8	-5	-3.0	1	-0.7	20%	1.1
Fc1ccc(-n2cc(-c3ccccc3)c3c(=S)nc[nH]c32)cc1	61	7	1.9	-5	11	.	1.1
Cc1c(NC(=O)C2CCCN2S(=O)(=O)c2cccc3nsnc23)cccc1C(=O)O (stereo not given)	-5	6	1.8	-15	?	2%	-2.8
COc1ccc(NC(=O)NC(=O)c2ccccc2)cc1	6	1	-0.6	.	2.2	.	1.8

The list continues.
SMILES	Calb FLC	Beta2AR agonist	HNF4A DNA FP	ALR H2O2 inh	RanGTP-Impb inh	Vif A3G	LANA-H2B inh
O=C(CN1C(=O)NC2(CCCCC2)C1=O)N1CCOCC1	.	-3	-1.4	-9	.	0%	-5.9
CCNc1c(NC(=O)C2CCC(C)CC2)c(=O)oc2ccccc12 (stereo not given)	-2	10	2.4	.	1.0	.	-15
O=C(/C=C/c1cn(CC(O)CN2CCCCCC2)c2ccccc12)c1cccs1 (stereo not given)	-5	-74	23	.	-20	.	.
C=CCn1c(SCC(N)=O)nnc1-c1cccc(Br)c1	-10	1	0.6	-4	3.0	7%	-2.0
O=C(C[n+]1cccc2ccccc21)c1ccccc1	-12	-78	3.5	-9	-1.9	1%	2.3
CC(=O)N(C(C)=O)c1nc(-c2ccccc2)cn1/N=C/c1cccc([N+](=O)[O-])c1	0	-4	0.6	.	3.8	.	-2.3
CCn1cc(C(=O)OCC(=O)Nc2cccc(C)c2)c(=O)c2ccc(C)nc21	-9	13	0.7	5	-0.6	-1%	-0.2
COc1cccc(NS(=O)(=O)c2c(C(=O)N3CCCCCC3)c(C)n(C)c2C)c1	40	5	-0.5	-2	6.5	.	-4.5
O=C(c1cnn(-c2ccc(Cl)cc2)c1)c1ccccc1O	6	11	0.8	12	0.8	4%	-2.7
COc1ccc(C(=O)OCC(=O)c2ccc3[nH]c(=O)[nH]c3c2)c(OC)c1OC	.	1	3.6	-5	.	.	-2.4
Cc1cccc(C)c1OCc1nnc(NC(=O)CSc2ccc(Cl)cc2)s1	5	6	4.7	.	2.3	-7%	.
CC(C)c1nc2scc(-c3ccc(Cl)cc3)c2c(=O)n1N	-32	10	-0.6	-2	-1.8	1%	1.5
CCCNC(=O)C1CC(=O)N(c2ccc(OCc3ccc(Cl)cc3)cc2)C1 (stereo not given)	18	-8	1.4	6	-1.3	.	3.3
CC(C)C(=O)NNC(=O)CSc1nnc(-c2ccccc2)c(-c2ccccc2)n1	3	1	-0.8	-3	-3.1	2%	2.2
CCOC(=O)c1ccc(NC(=O)COc2coc(CN3CCc4ccccc43)cc2=O)cc1	-4	-1	-0.9	1	1.8	.	-2.4
CC(C)CCNC(=O)C(c1ccco1)N(Cc1ccc(F)cc1)C(=O)c1snc(C(N)=O)c1N (stereo not given)	?	6	1.8	-2	29*	?	-0.5
CC(C)c1ccccc1N=C1SCCCN1C(=O)c1cccc(N2C(=O)CCC2=O)c1	-2	6	0.8	2	5.2	12%	1.9
CNC(=S)Nc1ccc(C)c(NC(=S)NC)c1	-6	4	-2.1	-18	5.2	.	-5.2
CCOC(=O)C1(CC)NC(c2ccc(N(C)C)cc2)C2C(=O)N(C)C(=O)C21 (stereo not given)	34	0	2.9	33	3.2	0%	-4.2
CCOc1ccccc1C1N=C(c2ccc(OC)cc2)CC(c2ccccc2O)N1 (stereo not given)	2	4	2.2	96*	6.2	-9%	1.3

3 of the compounds above, field by field:
O=C(CN1C(=O)NC2(CCCCC2)C1=O)N1CCOCC1
  Calb FLC = .
  Beta2AR agonist = -3
  HNF4A DNA FP = -1.4
  ALR H2O2 inh = -9
  RanGTP-Impb inh = .
  Vif A3G = 0%
  LANA-H2B inh = -5.9

CCNc1c(NC(=O)C2CCC(C)CC2)c(=O)oc2ccccc12 (stereo not given)
  Calb FLC = -2
  Beta2AR agonist = 10
  HNF4A DNA FP = 2.4
  ALR H2O2 inh = .
  RanGTP-Impb inh = 1.0
  Vif A3G = .
  LANA-H2B inh = -15

O=C(/C=C/c1cn(CC(O)CN2CCCCCC2)c2ccccc12)c1cccs1 (stereo not given)
  Calb FLC = -5
  Beta2AR agonist = -74
  HNF4A DNA FP = 23
  ALR H2O2 inh = .
  RanGTP-Impb inh = -20
  Vif A3G = .
  LANA-H2B inh = .

Other entries
SMILES	Calb FLC	Beta2AR agonist	HNF4A DNA FP	ALR H2O2 inh	RanGTP-Impb inh	Vif A3G	LANA-H2B inh
O=C(Nc1cc2c3c(c1)CC(=O)N3CCC2)c1ccc(Br)cc1	2	4	1.4	-17	-1.7	-7%	6.5
Clc1ccc2c(c1)CNc1c(ncnc1N1CCOCC1)O2	0	5	2.7	50	-1.6	?	-7.1
COc1ccccc1/C=C(\C)C(=O)c1c(C)cc(C)[nH]c1=O	3	-9	-0.5	-4	0.2	-5%	2.6
CCOC(=O)c1cc2c(ccn2C)n1CC(=O)N(CC)CC	5	2	4.2	-2	5.5	.	4.5
CCCC(C)C1c2c(c(C)c(C)oc2=O)Oc2c(C)c(C)oc(=O)c21 (stereo not given)	.	-7	3.7	1	.	.	-0.4
